Mtb H37Rv: M. tuberculosis H37Rv growth inhibitors, H37Rv strain (AID 1626); M. tuberculosis H37Rv growth inhibition; higher % means a stronger effect; one-dose inhibition, % at 10 µM; IC50 in µM for titrated hits; 0.95% of 220,000 active;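 active = confirmed in a dose series; inconclusive = inhibition above 80% but not taken into the dose series; inactive = below 80% or under 30% at every dose of the series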;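 also: bacteria incubated seven days before Alamar blue readout; 0% = bacteria only wells and 100% = bacteria with antibiotic wells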
YopH inh: inhibitors of Yersinia enterocolitica YopH tyrosine phosphatase | 0.16% of 140,000 active | fluorescence Ex485/Em525 | AID 898 | inhibition, %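 (about 10 µM by stock and volumes)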;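 active = inhibition of 50% or more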;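 also: controls were vehicle for no effect and minimum signal wells for full effect; inactives centre near -20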
Arbovirus inh: antivirals against arbovirus infection. arbovirus infection cell-based antiviral screen. inhibition, % at 10 µM. 0.37% of 200,000 active;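 active = inhibition from about 30%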;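 also: bluetongue infection of BSR cells; cell survival read as ATP light after 72 h; 0% = infected wells without compound and 100% = uninfected wells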
RecA intein inh: blocks M. tuberculosis RecA intein splicing; cell-free RecA intein splicing, fluorescence; inhibition, %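 (about 9 µM by stock and volumes)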; 0.75% of 290,000 active; P9WHJ3; in the data active = inhibition above about 30%; inconclusive = no clear call, values can overlap the other calls;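 also: 0% = vehicle wells and 100% = reference inhibitor control wells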
Target sequence (P9WHJ3 whole entry, looked up): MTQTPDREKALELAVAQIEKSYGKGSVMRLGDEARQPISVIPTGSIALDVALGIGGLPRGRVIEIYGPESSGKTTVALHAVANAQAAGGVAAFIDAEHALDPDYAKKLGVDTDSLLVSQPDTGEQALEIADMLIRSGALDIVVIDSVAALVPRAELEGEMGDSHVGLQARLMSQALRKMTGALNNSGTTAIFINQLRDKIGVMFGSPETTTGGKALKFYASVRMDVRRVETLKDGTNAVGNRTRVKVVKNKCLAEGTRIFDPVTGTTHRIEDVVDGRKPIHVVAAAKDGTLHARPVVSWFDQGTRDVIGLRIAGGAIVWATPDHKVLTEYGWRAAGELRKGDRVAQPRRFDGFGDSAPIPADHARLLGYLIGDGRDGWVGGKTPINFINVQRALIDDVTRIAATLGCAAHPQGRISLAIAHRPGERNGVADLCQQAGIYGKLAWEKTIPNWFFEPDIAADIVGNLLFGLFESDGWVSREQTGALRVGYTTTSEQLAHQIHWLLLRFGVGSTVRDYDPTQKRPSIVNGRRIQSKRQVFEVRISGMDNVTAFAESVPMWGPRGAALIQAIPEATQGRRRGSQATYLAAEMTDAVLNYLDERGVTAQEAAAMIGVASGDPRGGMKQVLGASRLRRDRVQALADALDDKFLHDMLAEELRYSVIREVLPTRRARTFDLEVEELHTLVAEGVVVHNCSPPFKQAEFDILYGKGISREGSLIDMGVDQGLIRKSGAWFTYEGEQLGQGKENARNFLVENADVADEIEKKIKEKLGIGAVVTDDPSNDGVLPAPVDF
Mtb betalactam: beta-lactam sensitization of Mtb H37Rv | 0.27% of 330,000 active | inhibition, % at 25 µM | M. tuberculosis H37Rv growth with meropenem, percent inhibition; hits of this screen are not shown here;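 active = about 74% or more and at least 40 points above the plate without the antibiotic, then above 30% in a dose series; inconclusive = first-round hits that could not be retested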;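 also: growth measured after seven days incubation then overnight dye step; 0% = bacteria only wells and 100% = bacteria with antibiotic; twin plates without the antibiotic show which effects depend on it; some results filed as inactive read as strong as hits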
Arbovirus inh repeat: further read-out of Arbovirus inh, marked with its call; inhibition, %; measured here: 10K subset replicate screen; many hits read low in the repeat;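 first of two repeat runs on a subset; 0% = infected and 100% = uninfected wells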
An asterisk follows results filed as active.

For Cc1ccc(S(=O)(=O)NC(C)C(=O)NCc2ccc(Cl)cc2)cc1 (stereo not drawn) the results were RecA intein inh 1.6 and Mtb betalactam -6.
`CCC1=C(OC(=O)N(CC)CC)N2C(=O)OC(=NCC(=O)OC)[C@]2(C)[C@H]2C1=CC[C@H]1C(=O)NC(=O)[C@H]12` gave Mtb H37Rv -8%, RecA intein inh 0.2 and Mtb betalactam -5.
COc1cccc(NC(=O)CCCn2c(=S)[nH]c3ccccc3c2=O)c1 was read as Mtb H37Rv -2%, YopH inh -22, Arbovirus inh 5, RecA intein inh 0.0 and Mtb betalactam -9.
Cc1ccc(Oc2ncccc2NC(=O)CCCC(=O)O)c2c1CCC2 was read as Mtb H37Rv -3%, RecA intein inh 0.3 and Mtb betalactam 4.
Screening O=[N+]([O-])c1ccccc1CNC1CCCc2ccccc21 (stereo not drawn) returned Mtb H37Rv 2%, Arbovirus inh -2 and Mtb betalactam 4.
For CCc1ccc(C2NC(C(=O)O)CS2)cc1 (stereo not drawn) the results were Mtb H37Rv 0%, YopH inh 3 and Arbovirus inh 2.
Screening O=C(NC1CC2CCC(C1)N2C(=O)NCc1ccccc1)NC12CC3CC(CC(C3)C1)C2 (stereo not drawn) returned YopH inh -42, Arbovirus inh 13, RecA intein inh 0.0 and Mtb betalactam 4.
O=c1[nH]c(=O)c2ncc(-c3ccc(Cl)cc3)nc2[nH]1 was read as Mtb H37Rv 7%, Arbovirus inh 1, RecA intein inh -4.4 and Mtb betalactam -4.
Screening CCCOC(=O)C(C)n1cnc2sc(C)c(C)c2c1=O (stereo not drawn) returned YopH inh -18, Arbovirus inh 4, RecA intein inh -2.2 and Mtb betalactam 98.
S=c1nc2ccccc2c2nc(-c3ccccc3Cl)[nH]n12 was read as RecA intein inh -8.8 and Mtb betalactam 2.
`COc1cccc(COc2ccccc2C2Nc3ccc(Br)cc3C(=O)N2NC(=O)c2ccncc2)c1` (stereo not drawn) gave YopH inh -21, Arbovirus inh -3, RecA intein inh 9.6 and Mtb betalactam 97.
`COc1cccc(CN(C(=O)c2ccccc2Cl)C2CCS(=O)(=O)C2)c1` (stereo not drawn) gave RecA intein inh -1.3 and Mtb betalactam -4.
`CC(=O)NC1=NN(C(C)=O)C(c2ccc(F)cc2)S1` (stereo not drawn) gave Mtb H37Rv 4%, Arbovirus inh 1, RecA intein inh -4.8 and Mtb betalactam 1.
For c1ccc2c(c1)CCCN2c1nc2ccccc2n2cnnc12 the results were Mtb H37Rv 6%, YopH inh -5, Arbovirus inh 7, RecA intein inh -0.5, Mtb betalactam -12 and Arbovirus inh repeat 2.
`O=C(NC1CCCCC1)N1CCN(CCc2ccccc2)CC1` gave Mtb H37Rv -10%, YopH inh 25, Arbovirus inh -5, RecA intein inh 1.1 and Mtb betalactam -4.
For CCc1cc(=O)oc2cc(OCC(=O)NCCCN3CCCC3=O)ccc12 the results were RecA intein inh -1.7 and Mtb betalactam 3.
`N#CCCN1CCN(C(=S)c2ccc(-c3ccc(Cl)c(Cl)c3)o2)CC1` gave Mtb H37Rv 9%, YopH inh -13, Arbovirus inh -9, RecA intein inh 11 and Mtb betalactam -19.
Screening Cc1ccc(S(=O)(=O)Nc2cccc(-c3ccc4nnc(C)n4n3)c2)s1 returned Mtb H37Rv 3%, Arbovirus inh -2, RecA intein inh -3.7 and Mtb betalactam 2.
O=C(COC(=O)CCC(=O)c1cccs1)Nc1ccccc1[N+](=O)[O-] was read as Mtb H37Rv -3%, Arbovirus inh 1, RecA intein inh -3.4 and Mtb betalactam 2.
For COc1ccccc1OC(=O)c1cc2ccccc2oc1=O the results were RecA intein inh -1.1 and Mtb betalactam 6.

An excerpt of the results above:
`COc1cccc(COc2ccccc2C2Nc3ccc(Br)cc3C(=O)N2NC(=O)c2ccncc2)c1` (stereo not drawn) gave YopH inh -21, Arbovirus inh -3, RecA intein inh 9.6 and Mtb betalactam 97.
`COc1cccc(CN(C(=O)c2ccccc2Cl)C2CCS(=O)(=O)C2)c1` (stereo not drawn) gave RecA intein inh -1.3 and Mtb betalactam -4.
`CC(=O)NC1=NN(C(C)=O)C(c2ccc(F)cc2)S1` (stereo not drawn) gave Mtb H37Rv 4%, Arbovirus inh 1, RecA intein inh -4.8 and Mtb betalactam 1.

(cont.)
CNC(=O)N1CCN(C(=O)NC)CC1 was read as Mtb H37Rv 3%, YopH inh -4, Arbovirus inh 2, RecA intein inh -8.3 and Mtb betalactam 3.
`COc1ccccc1OCC(=O)Nc1c2c(nn1-c1ccc(F)cc1)CS(=O)(=O)C2` gave RecA intein inh 1.6 and Mtb betalactam inconclusive.
For CCOC(=O)/C(C#N)=C/N=c1ccc(C)cn1C the results were Mtb H37Rv 18%, RecA intein inh -3.6 and Mtb betalactam -2.
N#C/C=C/C(=C\Nc1ccc(Cl)cc1)S(=O)(=O)c1ccccc1 was read as RecA intein inh -1.8 and Mtb betalactam 4.
Screening COc1ccc(C2C(C#N)=C(N)Oc3cc4c(cc32)OCO4)cc1 (stereo not drawn) returned Mtb H37Rv -5%, YopH inh -6, Arbovirus inh -21, RecA intein inh 4.6 and Mtb betalactam 0.
Cc1cc(NC(=O)Cn2nc(C(=O)O)c3ccccc3c2=O)ccc1Br was read as RecA intein inh -1.1 and Mtb betalactam 8.
Screening CSc1ccccc1C(=O)N1CCN(c2cccc(Cl)c2)CC1 returned Mtb H37Rv 16%, Arbovirus inh -19, RecA intein inh 6.0 and Mtb betalactam -9.
`Oc1ccc2ccccc2c1N=Nc1ccccc1F` gave Mtb H37Rv inconclusive, RecA intein inh -1.0 and Mtb betalactam -3.
Screening Cc1nccn1CCCNC(=O)C1CCC(=O)N(Cc2ccccc2F)C1 (stereo not drawn) returned RecA intein inh 0.8 and Mtb betalactam 3.
`O=C(CCc1nnc(C2(c3ccc(Cl)cc3)CCC2)o1)NCCCn1cccn1` gave Mtb H37Rv -3%, Arbovirus inh 10, RecA intein inh 1.9 and Mtb betalactam -6.
Cc1ccc(NC(=O)c2nsc(Cl)c2Cl)cc1 was read as Mtb H37Rv 22%, RecA intein inh -6.2 and Mtb betalactam 3.
`O=c1cc(N2CCN(c3ccccc3Cl)CC2)[nH]c(=O)n1Cc1ccc(F)cc1` gave Mtb H37Rv 1%, RecA intein inh 1.4 and Mtb betalactam -4.
For NC(=S)N/N=C/c1cc([N+](=O)[O-])ccc1Cl the results were Mtb H37Rv -1%, Arbovirus inh -1, RecA intein inh -2.3 and Mtb betalactam -3.
Screening Cn1c(/N=C/c2c[nH]c3ccccc23)nc2ccccc21 returned Mtb H37Rv 4%, YopH inh -38, Arbovirus inh -2, RecA intein inh -2.2 and Mtb betalactam -16.
`O=C(O)c1cc(Oc2ccc(C(F)(F)F)cc2Cl)ccc1[N+](=O)[O-]` gave Mtb H37Rv -9%, RecA intein inh -2.8 and Mtb betalactam -2.
Screening O=C(O)c1cc(-c2ccc(Cl)c(Cl)c2)n(-c2ccc(F)cc2)n1 returned RecA intein inh -1.4 and Mtb betalactam 3.
Screening O=C(Cn1nnc(-c2ccccc2)n1)OC1CCOC1=O (stereo not drawn) returned Mtb H37Rv -7%, YopH inh -17, Arbovirus inh 8, RecA intein inh -0.7 and Mtb betalactam -14.
For COc1cccc(CN2CC(C(=O)NCCSc3nnnn3C)CCC2=O)c1 (stereo not drawn) the results were RecA intein inh -0.1 and Mtb betalactam inconclusive.
For C#CCNC(=O)C1=C[C@@H](c2coc3ccccc3c2=O)[C@H](CCCO)[C@@H](OCC)O1 the results were Mtb H37Rv -15%, Arbovirus inh 9, RecA intein inh -0.5 and Mtb betalactam -9.
`O=C(NNC1=NCCCCC1)c1cccc([N+](=O)[O-])c1` gave Mtb H37Rv 2%, Arbovirus inh 1, RecA intein inh -0.2 and Mtb betalactam 2.
O=C(CSc1nc2ccccc2c(=O)n1-c1ccc(F)cc1)Nc1ccc(Cl)c(S(=O)(=O)N2CCOCC2)c1 was read as Mtb H37Rv 3%, YopH inh -17, Arbovirus inh 0, RecA intein inh 1.9 and Mtb betalactam 7.
For COCCNC(=O)Cn1ccc2cc(S(=O)(=O)N3CCCCCC3)ccc21 the results were RecA intein inh -1.1 and Mtb betalactam 12.
`CCc1cc(C(=O)OC)c(NC(=O)CC2Nc3cc(C)c(C)cc3NC2=O)s1` (stereo not drawn) gave Mtb H37Rv 3%, YopH inh 2, Arbovirus inh -4, RecA intein inh -2.3 and Mtb betalactam -3.
COc1ccc2c(C)cc(SCC(=O)Nc3c(C)n(C)n(-c4ccccc4)c3=O)nc2c1 was read as Mtb H37Rv -3%, YopH inh -118, Arbovirus inh 0, RecA intein inh 5.3 and Mtb betalactam -2.
Cc1ccc(S(=O)(=O)NCC(=O)N2CCOCCOCCOCC2)cc1 was read as RecA intein inh 3.1 and Mtb betalactam -2.
`CCN(CC)CCCNC(=O)c1c(O)c2cc(F)cc3c2n(c1=O)C(C)CC3` (stereo not drawn) gave RecA intein inh -0.8 and Mtb betalactam 1.
Screening CN(C(=O)COC(=O)COc1ccccc1F)C1CCS(=O)(=O)C1 (stereo not drawn) returned Mtb H37Rv -11%, YopH inh -12, Arbovirus inh 0, RecA intein inh 1.5 and Mtb betalactam -1.
Screening C=CCNC(=O)[C@H]1N2C(=O)c3ccccc3C2SC1(C)C (stereo partly drawn) returned RecA intein inh -0.7 and Mtb betalactam 0.
For O=C(Nc1cnn(Cc2ccc(Cl)cc2)c1)c1ccc([N+](=O)[O-])cc1 the results were Mtb H37Rv 5%, YopH inh -34, Arbovirus inh -1, RecA intein inh 7.0 and Mtb betalactam 34.
Cc1ccc2nc(N/C(=N/S(=O)(=O)c3ccc(F)cc3F)c3ccccc3)sc2c1 was read as Mtb H37Rv -1%, Arbovirus inh 9, RecA intein inh -1.7 and Mtb betalactam -4.
COc1ccc(OC)c(-n2nnnc2SCC(=O)Nc2nc(C)c(C)s2)c1 was read as Mtb H37Rv -6%, YopH inh -46, Arbovirus inh -4, RecA intein inh 0.2 and Mtb betalactam -3.
`Cc1ccc(-c2nnc3ccc(SCC(=O)N4CCc5ccccc54)nn23)cc1` gave Mtb H37Rv 15%, YopH inh -36, Arbovirus inh -8, RecA intein inh -0.3 and Mtb betalactam 1.
`CN(c1ccc(OCC(=O)OCc2nnc(-c3ccccc3)o2)cc1)S(=O)(=O)c1ccc(Cl)cc1` gave RecA intein inh -2.0 and Mtb betalactam 82.
Screening COc1cccc(C(=O)N2CCC(O)(c3cccnc3)CC2)c1 returned Mtb H37Rv 3%, Arbovirus inh 3, RecA intein inh -0.8 and Mtb betalactam 6.
`CCCCCc1c(C)nc(N2CCc3ccccc3C2)[nH]c1=O` gave Mtb H37Rv -8%, YopH inh -23, Arbovirus inh 0 and RecA intein inh 3.4.
`O=C(C1CCN(c2nc(-c3ccccc3)nc3c2CCC3)CC1)N1CCCC1` gave RecA intein inh 1.4 and Mtb betalactam 4.
Screening Cc1cccc(N2CSC3=C(C#N)C(c4ccc(C)o4)CC(=O)N3C2)c1 (stereo not drawn) returned Mtb H37Rv 5%, YopH inh -7, Arbovirus inh -3, RecA intein inh -1.8 and Mtb betalactam 8.
For COc1cc(NC(=O)c2sc3ncn(CC(=O)N4CCC(C)CC4)c(=O)c3c2C)cc(OC)c1OC the results were RecA intein inh 3.2 and Mtb betalactam 51.
Screening Cc1ccc(O)c(NC(=O)C2=CC(c3cccs3)=NS(=O)(=O)N2C)c1 returned RecA intein inh 0.9 and Mtb betalactam 0.
For O=C(NCCc1cccs1)C1CC(c2c(Cl)cccc2Cl)=NO1 (stereo not drawn) the results were Mtb H37Rv -4%, YopH inh -20, Arbovirus inh -6, RecA intein inh 3.3 and Mtb betalactam -3.
Screening COc1ccccc1C(=O)NC(=O)COC(=O)Cn1[nH]c(=O)c2ccccc2c1=O returned RecA intein inh -3.9 and Mtb betalactam 3.
Screening CN1CCN(c2ccc([N+](=O)[O-])cc2NC(=O)c2ccccc2Cl)CC1 returned Mtb H37Rv -7%, YopH inh -5, Arbovirus inh 4, RecA intein inh -0.6 and Mtb betalactam -21.
COCC(=O)NNC(=O)c1ccc(OC)cc1 was read as Mtb H37Rv -3%, Arbovirus inh 5, RecA intein inh 4.1 and Mtb betalactam 1.
Screening Cc1ccc(-c2nc3cc(NC(=O)C(C)C)ccc3o2)cc1 returned Mtb H37Rv 2%, YopH inh -16, Arbovirus inh -5, RecA intein inh -0.7, Mtb betalactam 48 and Arbovirus inh repeat -11.
For COc1ccc(S(=O)(=O)N2CCOCC2)c2ccccc12 the results were RecA intein inh 0.7 and Mtb betalactam -3.
`O=C(Nc1ccccc1Cl)C1CC(=O)n2c(nc3ccccc32)N1` (stereo not drawn) gave Mtb H37Rv -4%, Arbovirus inh -13, RecA intein inh -0.8 and Mtb betalactam 8.

Compound activity from PubChem BioAssay.

This is a subset; count on the stated rates, not on these rows.
